Compound activity as filed in PubChem.
TRPV1 potentiator: enhances activation of the human vanilloid receptor TRPV1. TRPV1-expressing cells, Fluo-8 calcium influx, capsaicin EC20 potentiation; host cell line not named in the record; control for the full effect not named in the record. Q8NER1. 320,000 compounds, 0.02% hits. potentiation, % at 8.33 µM; active means potentiation above 80%; inconclusive means 30% to 80%; inactive means below 30%; further: 0% is about no effect
Target sequence (Q8NER1 whole entry, looked up): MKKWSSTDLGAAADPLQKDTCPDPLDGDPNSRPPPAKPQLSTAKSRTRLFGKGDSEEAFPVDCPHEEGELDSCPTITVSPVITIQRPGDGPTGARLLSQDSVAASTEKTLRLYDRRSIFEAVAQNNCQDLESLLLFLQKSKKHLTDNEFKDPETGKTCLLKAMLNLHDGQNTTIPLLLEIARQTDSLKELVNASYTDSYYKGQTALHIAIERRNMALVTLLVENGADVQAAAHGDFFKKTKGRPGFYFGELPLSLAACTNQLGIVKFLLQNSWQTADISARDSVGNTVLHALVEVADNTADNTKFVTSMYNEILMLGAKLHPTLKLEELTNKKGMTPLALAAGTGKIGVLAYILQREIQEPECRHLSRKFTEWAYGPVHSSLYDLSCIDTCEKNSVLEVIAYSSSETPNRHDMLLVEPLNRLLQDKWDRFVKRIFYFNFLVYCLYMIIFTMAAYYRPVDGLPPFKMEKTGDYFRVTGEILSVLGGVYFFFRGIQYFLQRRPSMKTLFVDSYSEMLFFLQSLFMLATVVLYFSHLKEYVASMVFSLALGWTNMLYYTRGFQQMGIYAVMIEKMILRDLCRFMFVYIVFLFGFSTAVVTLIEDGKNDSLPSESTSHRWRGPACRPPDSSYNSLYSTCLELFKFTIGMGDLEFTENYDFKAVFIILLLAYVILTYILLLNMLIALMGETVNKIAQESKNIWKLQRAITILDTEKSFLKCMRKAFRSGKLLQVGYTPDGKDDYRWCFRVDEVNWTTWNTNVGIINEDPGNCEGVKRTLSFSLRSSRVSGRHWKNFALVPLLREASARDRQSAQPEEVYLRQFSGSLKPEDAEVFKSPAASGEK
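Cells expressing TRPV1 were dye-loaded with Fluo-8 and read kinetically: 10 s baseline, 3 min after compound (agonist portion), then 2 min after EC20 capsaicin (allosteric enhancer portion). Calcium-bound dye fluorescence at 480/520 nm.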
PINK1 modulator: modulators of PINK1 expression; AID 624263; PINK1 immunofluorescence, high-content cytometry, 24 h; Potency, µM (series often up to 76.6 µM), for the others: top-dose activation (PINK1 increase), usual class: activators; 410,000 compounds, 0.2% hits; active = well fitted activation curve with a large enough effect; inconclusive = small, poorly fitted or top-dose-only effect; inactive = flat fitted curve, though single readings scatter; cell line not stated here;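 further: potency means the concentration at half of the fitted maximal effect; % of control where 0% means no effect; nearly all actives have a fitted effect of over 65% in size; a mitochondrial uncoupler was the plate control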
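Measures PINK1 amount and localization on or inside mitochondria by immunofluorescence. Stable cells get compounds at 5 concentrations for 24 hours before fixation and staining; CCCP controls included.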
TRPML1 ag: agonists of human TRPML1 channel. 410,000 compounds, 0.12% hits. TRPML1-expressing cells, Ca2+ dye fluorescence, FDSS; host cell line not named in the record; reference of the full effect not given here. AID 624414. activation, % (concentration not given with the values). Q9GZU1; in the data active = activation above about 50%; inconclusive = about 30% to 50%; inactive = below about 30%; further: 0% is about no effect; the text of the record puts the active cut at 80%
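In this qHTS format, compounds were pin-transferred onto Ca8-dye-loaded TRPML1-DL cells induced with Tet overnight, and intracellular Ca2+ fluorescence was recorded kinetically for 110 s after a 10 s baseline. A subsequent 4uM final 54-4 (EC80) addition followed by a second 110 s read served as the antagonist phase.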
Menin-MLL FL inh: menin-MLL binding inhibition, fluorescein peptide. Fluorescence polarization, fluorescein-MLL peptide displacement from menin. FP activity change, % at 61.4 µM. 290,000 tested, under 10 active; inconclusive = falling polarisation curve, or a change in total fluorescence; inactive = total fluorescence flat and polarisation flat or rising; no compound was filed as active; the % refers to the polarisation; negative = inhibition;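 further: % of control where 0% means no effect; inhibitors lower the polarisation; unlabelled MLL peptide was the positive control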
ClpP mod: qHTS Assay for Activators of ClpP; purified B. subtilis ClpP, FRET peptide cleavage, 20 min; ATP-dependent Clp protease proteolytic subunit (Bacillus subtilis (strain 168)), P80244; 340,000 compounds, 1.9% hits; Potency, µM (highest dose often 57.5 µM), for the others: top-dose activity change, negative = active; active = well fitted falling curve with a large enough effect; inconclusive = small, poorly fitted or top-dose-only effect; inactive = no such curve, though single readings can be large or run the other way; further: potency means the concentration at half of the fitted maximal effect; the source files actives as falling curves though it sought activators and does not explain the sign; nearly all actives have a fitted effect of over 65% in size; many hits overshoot -100%
Target sequence (P80244 whole entry, looked up): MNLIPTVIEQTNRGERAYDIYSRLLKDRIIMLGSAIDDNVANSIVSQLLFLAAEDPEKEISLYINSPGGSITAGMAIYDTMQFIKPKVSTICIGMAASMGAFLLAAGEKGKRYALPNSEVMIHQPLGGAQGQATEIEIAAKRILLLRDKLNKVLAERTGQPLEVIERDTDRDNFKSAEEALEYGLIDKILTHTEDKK
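ClpP 10 microg/mL final, pH 8 Tris/KCl buffer with BSA, glycerol, Tween-20; compound pinned in; FRET-FV substrate; RT 20 min; Ex320/Em430; ΔFRET vs ADEP 5.8 microM, DMSO, no enzyme.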
TRPML1 blocker: inhibitors of human TRPML1 channel | Q9GZU1 | TRPML1-inducible cells, Ca2+ dye fluorescence, FDSS; hits give low values; inhibition of EC80 agonist-evoked calcium signal | activity change, negative = inhibition, % (concentration not given with the values) | 390,000 compounds, 0.02% hits; in the data active means activity change below about -50%; inconclusive means about -30% to -50%; inactive means above about -30%;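 further: stimulus is agonist 54-4 at its EC80 concentration; on the % scale 0 is the no-effect control and ±100 the full control effect; the text of the record puts the active cut at -80%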
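Calcium fluorescence in TRPML1-DL cells induced overnight with Tet: a 110 s read after compound pin addition, then a 110 s antagonist read after challenge with 54-4 at 4 uM final (EC80).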
Sfp PPTase inh: inhibitors of Bacillus subtilis Sfp phosphopantetheinyl transferase | Q9F4F7 | Biochemical Sfp PPTase activity, qHTS | Potency, µM, for the others: max response, negative = inhibition, actives largely listed as inhibitors | 310,000 compounds, 3.5% hits; active means well fitted inhibition curve with a large enough effect; inconclusive means small, poorly fitted or top-dose-only effect, or another doubt; inactive means no such curve, though single readings can be large or run the other way;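 further: the enzyme is Sfp with the accession as filed and its product quenches rhodamine fluorescence; potency means the concentration at half of the fitted maximal effect; 0% = enzyme reaction without inhibitor and -100% = no enzyme wells; top concentration of the series not given in the record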
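Fluorescence-quenching assay: 15 nM Sfp-PPTase preincubated 15 min at room temperature with compound, then 5 uM rhodamine-CoA and 12.5 uM BHQ-2-labelled YbbR peptide added. Fluorescence (ex 525/em 598 nm) read at start and after 30 min; difference gives rate.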
* = called active by the depositor; ? = inconclusive; . = no result given; & = joins results of further samples; [ ] = another dose, or the depositor's remark.

SMILES	TRPV1 potentiator	PINK1 modulator	TRPML1 ag	Menin-MLL FL inh	ClpP mod	TRPML1 blocker	Sfp PPTase inh
O=C(Nc1ccccc1N1CCOCC1)c1csc2c1CCCC2	-2.7	0.0%	1.2	0.0	0.5%	-2.2	-5.1%
CCNC(=O)C1CCCN(C(=O)c2ccccc2F)CC1 (configuration not stated)	.	1.0%	-0.3	.	0.3%	.	.
COc1ccc(-c2noc(CNS(=O)(=O)c3ccc(NC(C)=O)cc3)n2)cc1	1.1	0.0%	0.6	.	-5.9%	-1.2	10.0%
O=C(Nc1ccc(F)cc1)c1cc2ccccc2o1	-9.3	1.2%	.	-4.2	1.0%	.	-8.2%
COc1ccc2oc(C(=O)Nc3ccccc3N3CCOCC3)c(C)c2c1	-1.9	0.4%	-0.1	.	.	-25.9	.
COc1cc(OC)c(NS(=O)(=O)c2c(C)nc3sc(C)cn3c2=O)cc1Cl	.	0.0%	2.0	.	-2.9%	-7.5	.
c1cc2c(cnc3cscc32)s1	8.1	-2.0%	0.0	4.9	-12.3%	5.7	-15.2%
O=C(OCCCCOC(=O)c1ccccc1)c1ccccc1	-10.4	-0.1%	3.1	1.3	.	4.1	6.3%
CCN(CC(=O)NCc1ccc(Cl)cc1)C(=O)Cc1ccc(OC)cc1	?	-1.2%	0.1	-1.7	.	10.7	18.9%
Cn1nccc1C(=O)N1CCOCC1	21.7	2.2%	0.3	.	-3.6%	12.7	12.6%
Cn1ccc2c(/C=C/c3ccc(F)cc3)cc3c(c21)C1CCC3C1 (configuration not stated)	.	-0.3%	0.0	.	5.0%	7.7	.
O=C(CSc1n[nH]c(-c2cccnc2)n1)Nc1ccc(Cl)cc1	?	-2.4%	0.5	-4.0	.	5.4	19.9%
CCNc1nc(NC(C)(C)C)nc(Oc2ccc(=O)n(-c3ccccc3)n2)n1	9.5	-0.4%&1.1%	1.2&0.0	5.7	-0.9%&-0.4%	-8.8&-7.8	13.6%
O=C1CCCN1CC(=O)N1CCCC(N2CCN(c3cccc(Cl)c3)CC2)C1 (configuration not stated)	11.8	?	1.2	.	-2.5%	-2.2	6.8%
CC(C(=O)NCc1cccs1)N1C(=O)c2ccccc2C1=O (configuration not stated)	2.5	2.6%	-0.7	1.2	1.4%	-2.5	10.8%
Cc1ccc(NC(=O)OC(C)CNC(=O)Oc2cccc(C)c2)cc1 (configuration not stated)	-6.3	0.1%	3.0	-2.6	-0.1%	9.1	12.3%
Cc1cc(C)n2c(Nc3ccc4c(c3)OCCO4)c(C3CC3)nc2n1	.	2.4%	-0.9	.	-1.5%	.	.
CCN(CC)CC#CCC1(O)c2ccccc2-c2ccccc21	-7.6	-1.7%[38.3 µM]	-0.4	-0.6	-2.0%	-22.4	10.3%
Cc1cccc(OC(C)C(=O)Nc2nonc2-c2ccc(Br)cc2)c1C (configuration not stated)	.	17.9%	2.2	.	3.3%	15.9	.
Clc1ccc(-c2c[nH]c3ccccc23)nn1	-2.7	-2.8%	1.3	0.9	.	-22.0	19.6%

Single records (already shown). Order of screens: TRPV1 potentiator | PINK1 modulator | TRPML1 ag | Menin-MLL FL inh | ClpP mod | TRPML1 blocker | Sfp PPTase inh
Listed for `COc1cc(OC)c(NS(=O)(=O)c2c(C)nc3sc(C)cn3c2=O)cc1Cl` → . | 0.0% | 2.0 | . | -2.9% | -7.5 | .
Listed for `O=C(Nc1ccccc1N1CCOCC1)c1csc2c1CCCC2` → -2.7 | 0.0% | 1.2 | 0.0 | 0.5% | -2.2 | -5.1%
Listed for `Cc1cc(C)n2c(Nc3ccc4c(c3)OCCO4)c(C3CC3)nc2n1` → . | 2.4% | -0.9 | . | -1.5% | . | .

More results follow.
SMILES	TRPV1 potentiator	PINK1 modulator	TRPML1 ag	Menin-MLL FL inh	ClpP mod	TRPML1 blocker	Sfp PPTase inh
COC(=O)/C(=C(/F)Sc1cc(C)c(O)c(C)c1)C(F)(F)F	-11.2	-0.9%[38.3 µM]	0.9	0.1	-1.2%	15.8	11.6%
CCOc1ccccc1CNC(=O)CCC(=O)N1Cc2ccccc2Oc2ncccc21	20.7	0.9%	2.0	.	.	-3.8	6.5%
COc1ccc(C2C(=O)N(C3CCC(C)CC3)CC(=O)N2CCC2=CCCCC2)cc1OC (configuration not stated)	.	0.9%	0.0	.	1.5%	-4.7	.
Cc1ccc(S(=O)(=O)NCCC(=O)N2CCN(Cc3ccccc3)CC2)cc1	-7.8	.	0.3	1.4	1.9%	0.4	13.7%
CC1(C(=O)NNC(=O)c2cccc([N+](=O)[O-])c2)CC1(Br)Br (configuration not stated)	-1.0	-0.2%	0.5	-1.0	0.7%	-4.9	-2.6%
CC(=O)Nc1cccc2c1C(=O)N(c1ccc(C)cc1)C2=O	3.9	-1.6%	1.3	0.7	-2.1%	12.0	-0.9%
Cc1cc(OCC(=O)NC2CCN(C)CC2)ccc1[N+](=O)[O-]	-10.4	2.7%	0.9	-0.2	.	-1.4	16.3%
O=C(C1CCCN1S(=O)(=O)c1cccc2cccnc12)N1CCN(c2ccccc2)CC1 (configuration not stated)	.	0.5%	-0.7	3.4	-0.6%	-2.6	1.4%
Cc1ccc(NC(=O)C2CCN(C(=O)c3cnn(-c4ccccc4)c3-n3cccc3)CC2)cc1C	.	-0.3%	0.1	.	-0.3%	-12.4	.
COc1ccc(Cl)cc1NC(=O)CN(c1cccc(C)c1C)S(C)(=O)=O	.	-0.3%	-0.8	.	1.2%	10.8	.
COc1ccc(-c2nc3nc(C)c(Cc4ccccc4)c(=O)n3[nH]2)cc1	-6.2	-0.8%	0.7	0.0	?	30.4	-3.2%
Cc1cccc(NCc2ccccc2)c1	9.9	4.2%	.	6.7	-0.5%	.	3.1%
CCOc1ccc(Nc2ncnc3c2cnn3-c2ccc(F)cc2)cc1	.	6.0%	-1.0	.	4.4%	10.1	.
C=C(C)C(=O)N1CCN(C(=O)C(=C)C)c2ccccc21	.	-1.7%	2.6	.	.	-5.1	.
COc1ccccc1N1CCN(/N=C/c2ccc(O)cc2O)CC1	-5.6	2.6%	1.5	1.1	0.3%	-7.8	-7.5%
O=C1C(Cc2ccc(O)cc2)NC(=S)N1c1ccccc1 (configuration not stated)	4.2	9.9%[38.3 µM]	-0.6	2.0	-0.5%	14.1	8.8%
COc1ccc(CC(=O)N2CCCC(C)C2)cc1 (configuration not stated)	17.0	-4.4%	0.5	2.3	0.6%	-20.9	-4.1%
CCc1ccc(-n2c(CCC(=O)O)ccc2-c2ccc(F)cc2)cc1	.	-0.4%	0.4	.	-16.9%	7.7	.
Cc1ccc(CCNC(=O)c2sc3nc4n(c(=O)c3c2C)CCC4)cc1	2.2	3.4%	0.9	0.9	-6.7%	16.3	11.4%
Cc1ccc(C)n1-c1ccc(C(=O)/C=C/N(C)C)cc1	?	-0.3%	1.1	25.9	.	6.2	7.8%
O=C(CSc1ccc(Cl)cc1)N1CCN(c2ccc(Cl)cc2[N+](=O)[O-])CC1	-8.0	0.0%[38.3 µM]	1.5	6.1	-2.2%	63.3	-0.2%
O=C(c1cnc(N2CCN(c3ncccn3)CC2)c2ccccc12)N1CCN(c2ncccn2)CC1	18.0	-0.6%	0.3	2.0	-6.9%	1.3	0.2%
CN(C)c1nc(OCCNC(=O)COc2ccccc2Cl)nc(N(C)C)n1	-5.7	-2.3%	0.0	-2.0	-2.4%	6.8	-10.9%
CCCCCCOc1ccc(-c2nc3ccc(Br)cc3c(=O)o2)cc1	.	-0.4%	-0.7	.	0.8%	-15.8	.
O=C(CSc1nnc(CNC(=O)c2ccco2)o1)Nc1ccccc1F	28.5	1.2%	-0.6	.	-0.9%	-4.7	39.8µM*
COc1cccc(-c2cc3nc(-c4ccccc4)cc(N4CCCC(O)C4)n3n2)c1 (configuration not stated)	-5.7	0.8%	0.7	0.1	3.9%	-0.7	-3.0%
COc1ccc(-n2c(CCC(=O)O)ccc2-c2ccccc2)c(OC)c1	.	0.1%	2.0	.	-11.5%	25.3	.
Cc1ccc(/C=C2/CNC/C(=C/c3ccc(C)cc3)C2=O)cc1	.	-0.1%	0.0	.	1.2%	13.2	.
Cc1ccc2[nH]cc(CCNC(=O)c3ccc([N+](=O)[O-])cc3)c2c1	7.5	-1.3%	3.3	1.2	1.0%	-2.8	12.3%
CC(C)CN(C(=O)CCC1CCCCC1)c1c(N)n(CC(C)C)c(=O)[nH]c1=O	-3.3	-0.9%	0.2	.	.	7.2	.
CCN(CC)C(=O)c1ccc(COc2ccccc2Cl)o1	0.9	3.0%	2.8	-0.2	.	6.8	15.9%
CC(=O)Nc1ccc2nc(-c3cccs3)[nH]c2c1	-8.4	0.3%	0.0	3.3	-11.6%	0.9	4.3%
Cc1ccc(OCC(=O)Nc2ccc(NC(=O)c3ccccc3)c(C)c2)cc1	7.6	2.6%	0.7	.	1.5%	-2.9	8.4%
CCOc1ccc(NS(=O)(=O)c2cc(OC)ccc2OC)cc1	8.3	1.5%[38.3 µM]	0.5	1.6	-2.0%	-2.7	15.9%
CC(C)C(OC(=O)c1cc2occc2n1C)C(=O)NCc1ccc2c(c1)OCO2 (configuration not stated)	5.2	-4.4%[38.3 µM]	4.5	5.2	-4.0%	-0.6	-9.7%
CCC(=O)NCCc1nc2cc(NC(=O)c3ccc(F)cc3)ccc2n1C	2.9	-0.2%	0.9	-19.5	2.5%	0.7	3.8%
CCOc1cc(/C=C2\C(=O)N(c3nc(-c4ccc(Br)cc4)cs3)N=C2c2ccccc2)ccc1O	22.9	0.2%	-1.0	2.4	2.4%	7.8	-26.8%
COc1ccc2cc(CN(CC3CCCO3)S(=O)(=O)c3ccc(C(C)=O)cc3)c(=O)[nH]c2c1 (configuration not stated)	2.7	.	-0.3	-0.7	-14.4%	-3.8	3.1%
O=C(/C=C/c1ccc(S(=O)(=O)N2CCOCC2)cc1)NCc1ccccc1Cl	7.2	3.0%	0.1	7.2	0.1%	-15.4	24.4%
O=C(CSc1nc2c(c(=O)n1-c1ccc(Br)cc1)SCC2)NCC1CCCO1 (configuration not stated)	-15.7	0.0%	0.0	5.3	0.6%	-4.1	-4.6%
Cc1ccc(NC(=O)C2CCN(S(=O)(=O)c3cccc4cccnc34)CC2)nc1	.	5.3%	-0.1	0.1	0.0%	-11.8	19.8%
